High-throughput results: PubChem, several laboratories
A1 inh – caspase 3/7 activation in MEF A1-2A-BIM cells, primary screen, A1 inhibitor project, cell-based, luminescence, HTS. Caspase-Glo 3/7 luminescence, 3 h; percent of clofoctol response, vehicle zero. caspase activation, % (no concentration beside the values). 0.066% of 330,000 active. AID 2462, 2010;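 active means over half of replicate activation scores above 10%, or exactly half above 10 with the replicate mean above 10; inconclusive means replicate mean below 10 yet half the replicates above 10; inactive means over half of replicates below 10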;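 further: wells of about 30 µL received 50 nL stock; many hits fall short of the cut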
Vif A3G – inhibitors of Vif binding to APOBEC3G peptide, primary screen, biochemical, TR-FRET, GST-Vif 1-94, biotin-A3G peptide, dose response retest (AID 1117319); Virion infectivity factor (Human immunodeficiency virus type 1 group M subtype B (isolate …; TR-FRET GST-Vif / biotin-A3G peptide binding; higher % means a stronger effect; test concentration not given here; strong numbers were not always called active; inhibition, %, or IC50 in µM where a hit was titrated; 0.57% of 260,000 active;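 active means above the screen mean plus three standard deviations and confirmed in dose response; inconclusive means results disagree or hit not tested in dose response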;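 further: Vif residues 1-94 fused to GST binding biotinylated APOBEC3G peptide 110-148; 0% = full assay without inhibitor and 100% = GST in place of GST-Vif; retest series ran down from 100 µM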
RanGTP-Impb inh – inhibitors of RanGTP-importin-beta interaction, primary screen, biochemical, FRET, CFP-Ran, YFP-importin-beta, homogeneous. cell-free CFP-Ran/YFP-importin-beta FRET ratio. 1.1% of 300,000 active. inhibition, % (concentration not given with the values);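 active means most replicates above 15%; inconclusive means exactly half above 15%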;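 further: 0% = DMSO wells and 100% = Ran loaded with GDP instead of GTP; wells of about 40 µL received 100 nL stock; the first replicate is given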
Beta cell apopt – inhibitors of cytokine-induced beta cell apoptosis, primary screen, luminescence; 0.8% of 300,000 active; protection from apoptosis, % (concentration not given with the values); INS-1E cytokine-induced death, ATP luminescence, 48 h; percent of positive-control rescue, neutral wells zero;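 active means all replicates at 75% or more, or half of them and the mean; inconclusive means half reach 75% but not the mean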;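 further: 0% = cytokine-treated negative control wells and 100% = positive control rescue; higher means more ATP so stronger rescue from cytokine killing; wells of about 40 µL received 100 nL stock; the first replicate is given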
AF4-AF9 inh – inhibitors of AF4 peptide binding to AF9, primary screen, biochemical, AlphaScreen, biotin-AF4 peptide, FLAG-AF9, single point; inhibition, % at 10 µM; 0.47% of 350,000 active; AID 651704, 2012;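 active means every replicate reaching a set inhibition limit, whatever the replicate mean, cut at about 25% in these data; inconclusive means mean inhibition reaches that limit but some replicates miss it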;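 further: 0% = plate neutral control median and 100% = total signal loss; the record names both 10 and 1 µM as test concentration; the first replicate is given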
T cruzi repl – inhibitors of intracellular T. cruzi growth, primary screen, luminescence, NIH3T3 host cells | T. cruzi beta-gal in NIH3T3, 90 h | inhibition, % (no concentration beside the values) | 1.4% of 300,000 active;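 active means mean inhibition across valid replicates above about 55%, limit read from the data; inconclusive means mean below that limit but half or more replicates reach it; inactive means mean below it, under half of replicates reach it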;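 further: signal also drops with host cell toxicity which is not excluded here; 0% = plate median of DMSO wells and 100% = zero luminescence signal; higher percent means less beta-gal luminescence so fewer parasites; stock transfer was 50 nL into about 50 µL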
Calb FLC – C. albicans growth inhibition with fluconazole, primary screen, CaCi-2 strain, Alamar Blue fluorescence; growth inhibition, % (test concentration not listed); C. albicans CaCi-2 (fluconazole-resistant clinical isolate) + fluconazole, 48 h; 0.57% of 300,000 active;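 active means most replicates above 75%; inconclusive means exactly half above 75%; inactive means most below 75%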;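 further: all wells also contain fluconazole at 8 µg/ml as a sub-toxic cotreatment; 0% = median of DMSO wells and 100% = median of geldanamycin control wells; wells of about 8 µL received 7.5 nL stock; the first replicate is given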
LANA-H2A inh – blockers of LANA interaction with H2A/H2B – biochemical, FP readout, HTS, primary screen; cell-free LANA-H2A/H2B peptide, fluorescence polarization; AID 2629, 2010; inhibition, % (no concentration beside the values); Protein LANA1 (Human herpesvirus 8 type P (isolate GK18)), Q9QR71; 0.6% of 320,000 active; in the data active means inhibition mostly above about 10%, no sharp cut-off; inactive means mostly below about 6.7%;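 further: stock transfer was 7.5 nL into about 10 µL; 0% = median of vehicle wells and 100% = median of positive control wells; one replicate is shown; the record names a cut of 25% in any replicate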
Target sequence (Q9QR71 whole entry, looked up): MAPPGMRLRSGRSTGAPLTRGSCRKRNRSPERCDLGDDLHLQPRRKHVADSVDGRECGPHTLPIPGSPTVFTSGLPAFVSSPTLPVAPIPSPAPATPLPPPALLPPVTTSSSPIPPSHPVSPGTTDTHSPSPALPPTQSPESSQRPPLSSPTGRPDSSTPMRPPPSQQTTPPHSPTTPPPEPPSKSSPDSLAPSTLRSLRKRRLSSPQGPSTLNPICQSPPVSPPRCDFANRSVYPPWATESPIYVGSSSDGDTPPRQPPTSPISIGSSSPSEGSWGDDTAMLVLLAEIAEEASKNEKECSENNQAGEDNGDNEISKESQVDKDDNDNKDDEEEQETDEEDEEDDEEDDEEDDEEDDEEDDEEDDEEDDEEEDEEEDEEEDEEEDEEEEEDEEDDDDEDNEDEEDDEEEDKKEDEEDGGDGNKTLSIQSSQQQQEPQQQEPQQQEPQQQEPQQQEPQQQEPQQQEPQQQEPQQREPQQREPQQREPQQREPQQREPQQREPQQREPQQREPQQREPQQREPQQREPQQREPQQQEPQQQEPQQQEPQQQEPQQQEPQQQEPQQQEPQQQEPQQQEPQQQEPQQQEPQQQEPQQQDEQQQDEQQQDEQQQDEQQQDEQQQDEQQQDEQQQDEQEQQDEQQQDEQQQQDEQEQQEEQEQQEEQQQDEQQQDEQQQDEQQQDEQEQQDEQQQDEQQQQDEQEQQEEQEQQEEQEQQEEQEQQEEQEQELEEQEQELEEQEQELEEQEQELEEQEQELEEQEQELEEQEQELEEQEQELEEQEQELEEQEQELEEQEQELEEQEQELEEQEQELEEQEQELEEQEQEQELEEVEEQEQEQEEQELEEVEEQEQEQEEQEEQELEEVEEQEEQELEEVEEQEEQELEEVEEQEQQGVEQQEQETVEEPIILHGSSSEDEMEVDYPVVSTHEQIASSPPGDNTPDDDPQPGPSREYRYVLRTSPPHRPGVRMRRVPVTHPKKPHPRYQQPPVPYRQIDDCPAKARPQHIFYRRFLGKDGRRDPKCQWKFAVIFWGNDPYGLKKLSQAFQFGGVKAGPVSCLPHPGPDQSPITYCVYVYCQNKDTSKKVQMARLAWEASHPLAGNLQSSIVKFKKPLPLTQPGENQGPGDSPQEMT
The depositor's hits bear a star; ? = inconclusive; . = no result given.

Fields: A1 inh	AF4-AF9 inh	RanGTP-Impb inh	Calb FLC	Vif A3G	T cruzi repl	Beta cell apopt	LANA-H2A inh
1	O=C(O)c1ccc(/C=N/Nc2nc(N3CCCCC3)nc(N3CCCCC3)n2)cc1
    0.7	-15.0	8.4	7.6	4.7%	1.8	-9.6	13.9
2	O=[N+]([O-])c1cccc(-c2nc(NCc3ccccc3)c3ccccc3n2)c1
    -0.5	.	?	6.9	-3.6%	45.6	14.4	0.5
3	COc1ccc(NC(=S)Nc2ccc(OC)cc2OC)c(OC)c1
    -1.3	.	2.9	-7.6	0.1%	-9.1	.	-11.8
4	COc1ccccc1C(=O)Nc1ccccn1
    -4.5	.	.	-3.1	9.3%	0.6	-5.3	6.3
5	COCC(C)NC(=O)c1ccc(-n2nc(C(F)(F)F)cc2-c2cccs2)cc1 (stereo not drawn)
    0.6	.	1.7	22.6	0.1%	-2.0	8.3	1.7
6	Cc1onc(-c2ccccc2)c1C(=O)N/N=C/c1ccc([N+](=O)[O-])s1
    0.2	.	0.5	42.4	-3.1%	-26.9	-7.4	-6.8
7	CCCCn1c(=O)[nH]c(=O)c2c1nc(-c1ccc(-c3ccccc3Br)o1)n2CCOC
    0.5	.	-4.8	0.2	?	23.3	-1.8	4.1
8	COc1ccc2nc(SCC(=O)Nc3ccc4sc(C)nc4c3)c(C#N)cc2c1
    .	.	0.4	-3.0	-110.0%	17.5	7.6	1.7
9	CN1CCN(/N=C/c2ccc(-c3ccc([N+](=O)[O-])cc3)o2)CC1
    0.1	15.8	-3.2	3.1	.	59.9*	0.1	-3.4
10	CCn1cc(CN2CCCC(CO)(Cc3ccc(F)cc3)C2)c2ccccc21 (stereo not drawn)
    1.6	8.3	-2.5	-7.6	.	50.8	-3.1	-2.1
11	Cc1ccc(S(=O)(=O)Nc2c(C)n(C)n(-c3ccccc3)c2=O)cc1C(=O)NCc1ccccn1
    0.0	.	0.9	-23.9	-4.2%	-3.9	-3.0	-1.4
12	CCCc1nc(SCC(=O)Nc2cc(Cl)ccc2OC)c2c(=O)n(C)c(=O)n(C)c2n1
    .	.	0.0	-0.1	-5.6%	-8.5	.	.
13	COc1ccc2nc3cccc(OC)c3nc2c1
    -4.7	2.4	-10.2	18.3	15.1%	8.4	11.2	2.1
14	Cc1ccc(C(=O)Nc2cccc(S(=O)(=O)N(C)c3ccccc3)c2)o1
    -0.1	-1.9	.	.	-3.2%	.	4.1	-1.1
15	CCOCC(=O)Nc1cccc(C(=O)OCC)c1
    1.4	.	5.3	10.2	3.1%	-16.6	-3.2	3.0
16	NNC(=O)CCc1nc2ccccc2[nH]1
    2.1	0.6	-1.3	-2.7	.	-3.1	-3.1	3.3
17	COc1cccc(-c2nn(-c3ccccc3)cc2CN(C)C(C)c2ccon2)c1 (stereo not drawn)
    0.2	-4.1	5.6	-13.3	.	36.5	2.9	2.7
18	CSc1ccc(S(=O)(=O)NCC(=O)OC(C)C(=O)NCc2ccccc2)cc1[N+](=O)[O-] (stereo not drawn)
    -0.1	-17.2	2.0	2.7	.	9.0	-13.1	-1.1
19	O=C(CCN1CCOCC1)Nc1ccc2c(c1)CCC2
    0.4	.	0.7	-2.3	2.1%	-0.9	-0.4	0.8
20	COc1cc(S(=O)(=O)N(C)C2CCCCC2)c(C)cc1C
    .	-1.6	-2.6	-20.7	.	8.4	.	.
21	CCC1(Cc2ccccc2)NC(=O)c2ccccc2O1 (stereo not drawn)
    0.0	-1.1	1.2	-0.3	-5.1%	5.3	-1.3	2.2
22	Cc1ccccc1NC(=O)c1cnc2ccccn2c1=O
    -5.3	.	0.3	1.4	-2.9%	-0.9	4.1	1.7
23	Cc1ccc(N(C(=O)CNC(=O)c2ccco2)C(C(=O)NC2CCCC2)c2ccncc2)cc1F (stereo not drawn)
    0.0	-0.5	-3.6	4.6	-4.8%	-3.3	0.6	6.1
24	O=C1CC(c2cccnc2)c2cc3c(cc2N1)OCO3 (stereo not drawn)
    -0.1	-5.1	0.2	4.1	-0.8%	-9.4	-0.6	-3.7
25	Cn1ncc(Br)c1C(=O)N1CCOCC1
    -0.7	-12.9	-2.1	-2.3	-0.7%	-13.8	-9.5	-1.2
26	COc1ccc(N2C(=O)C(Cl)=C(N3CCCC3)C2=O)cc1
    0.3	.	3.9	-2.2	24.5%	-4.9	-7.0	0.2
27	O=C1S/C(=C\c2ccc(O)c([N+](=O)[O-])c2)C(=O)N1Cc1cccc([N+](=O)[O-])c1
    -0.7	0.4	-3.5	-0.5	11.4%	9.8	29.0	-0.2
28	O=C(Nc1ccc2c(c1)OCCO2)c1ccc2ccccc2n1
    -8.4	-0.4	.	-15.2	-2.5%	.	-5.6	-1.3
29	CS(=O)(=O)N1CCCC(C(=O)Nc2ccc(Br)cc2F)C1 (stereo not drawn)
    -0.5	-7.3	5.8	-11.9	-5.8%	-6.4	-5.2	1.8
30	Cc1c(NC(=O)CN2C(=O)c3ccccc3C2=O)c(=O)n(-c2ccccc2)n1C
    0.4	.	3.9	?	-3.9%	5.9	-2.5	-0.8
31	COc1ccc(NC(=S)c2ccc(N(C)C)cc2)cc1
    0.5	.	4.1	-5.0	-46.9%	-13.7	-8.3	-1.1
32	Cc1c(N=Cc2ccc(O)c(Br)c2)cccc1[N+](=O)[O-]
    -0.4	0.3	-1.8	-0.7	-5.8%	-2.9	1.8	2.6
33	c1ccc(-c2cn3c(n2)SCC3)cc1
    -1.5	.	-0.5	?	-4.0%	-1.9	-1.9	1.4
34	Cc1nn(-c2ccc(C(=O)O)cc2)c(N)c1-c1ccccc1
    -0.9	.	-3.0	2.0	0.8%	-6.9	.	-0.3
35	COC(=O)C(NC(=O)COc1ccccc1)(Nc1nc2c(s1)CCCC2)C(F)(F)F (stereo not drawn)
    -0.4	.	0.8	-15.4	7.5%	-11.9	-10.0	0.7
36	Cc1cccc(C)c1NC(=O)N1CCC(n2cnc3ccccc32)CC1
    -1.3	.	5.8	-14.8	9.4%	-13.9	-5.0	1.4
37	COc1ccccc1Nc1nc(-c2sc(NC(=O)c3cccc(Cl)c3)nc2C)cs1
    -7.5	.	1.0	-6.6	?	-13.4	-8.6	-9.1
38	Cc1ccc(S(=O)(=O)Nc2cc(C(C)C)c(O)cc2C)cc1
    0.2	.	0.2	23.4	-2.3%	16.5	1.5	1.0
39	Cc1ccc(S(=O)(=O)N(C)CCCC(=O)N2CCCCC2)cc1
    0.2	-2.5	0.8	2.0	.	3.5	.	4.4
40	COC(=O)c1ccc(CSC2=NCCS2)cc1
    -1.4	.	0.6	-4.0	4.1%	-12.1	-1.7	8.2
41	CCCS(=O)(=O)c1nnnn1-c1cccc(OC)c1
    1.9	.	?	82.2*	-1.5%	31.6	-48.4	2.6
42	CCN(CC)S(=O)(=O)c1ccc(N2CCCCC2)c(C(=O)Nc2ccccc2N2CCOCC2)c1
    -0.4	.	0.6	-22.7	3.1%	47.7	2.0	-9.0
43	CCc1sc(C(=O)N2CCN(S(C)(=O)=O)CC2)cc1Br
    -0.2	7.0	1.8	1.1	?	2.9	-0.7	0.2
44	COc1ccc(N2C(=O)CSC2c2ccccc2F)c(OC)c1 (stereo not drawn)
    0.9	1.0	2.1	-2.0	.	-11.6	-3.7	-2.6
45	Cc1cc(C(F)F)nn1CC(=O)Nc1cc([N+](=O)[O-])ccc1F
    -0.3	.	-4.2	2.0	9.8%	-10.3	-4.8	3.5

Shown bar-delimited: part of the list above.
# | structure | A1 inh | AF4-AF9 inh | RanGTP-Impb inh | Calb FLC | Vif A3G | T cruzi repl | Beta cell apopt | LANA-H2A inh
15 | CCOCC(=O)Nc1cccc(C(=O)OCC)c1 | 1.4 | . | 5.3 | 10.2 | 3.1% | -16.6 | -3.2 | 3.0
20 | COc1cc(S(=O)(=O)N(C)C2CCCCC2)c(C)cc1C | . | -1.6 | -2.6 | -20.7 | . | 8.4 | . | .

Other results follow.
Fields: A1 inh	AF4-AF9 inh	RanGTP-Impb inh	Calb FLC	Vif A3G	T cruzi repl	Beta cell apopt	LANA-H2A inh
46	Cc1ccccc1-n1c(SCC(=O)Nc2ccccc2)nc2nc3c(cc2c1=O)CCCC3
    0.2	.	1.0	7.4	.	9.9	1.8	7.0
47	O=C(c1cc2cc(Br)cc(Br)c2oc1=O)N1CCOCC1
    0.1	0.9	0.5	8.8	.	-7.2	-4.6	1.3
48	COc1ccccc1CCC(=O)OCC(=O)Nc1c(C)nn(-c2ccccc2)c1C
    -0.7	-1.3	?	5.4	5.7%	-15.3	-0.5	.
49	COc1ccc(OC)c(-n2c(=S)[nH]c3c(sc(=S)n3-c3ccccc3C)c2=O)c1
    1.2	-3.7	4.6	26.6	8.0%	-1.2	-8.5	.
50	Cc1ccccc1C(=O)NCC(=O)OCC(=O)NC(C)C1CC2CCC1C2 (stereo not drawn)
    -0.3	-0.1	.	.	24.8%	.	6.9	-1.9
51	COc1ccc2nc(SCC(=O)Nc3ccccc3)[nH]c2c1
    1.0	0.7	-2.5	-23.8	-0.3%	2.9	-7.9	0.7
52	CN(C)C(CNC(=O)c1cccs1)c1cccnc1 (stereo not drawn)
    0.9	5.6	-0.9	-2.5	?	-8.7	-0.1	2.0
53	FC(F)(F)c1nnc2sc(-c3ccccn3)nn12
    1.0	.	2.3	-2.4	-6.0%	-2.7	-8.4	0.2
54	CCOc1cccc(-c2nc(C(N)=O)c3[nH]c(=O)n(-c4cccc(Cl)c4)c3n2)c1O
    0.8	6.0	3.4	2.5	-2.8%	6.2	-0.8	9.8
55	Cc1cccc(-n2ncc3c2CCCC3NC(=O)C2CCOCC2)c1C (stereo not drawn)
    1.4	0.0	-0.2	-0.2	.	-7.0	10.9	2.3
56	Cc1ccc(-c2cn3cccnc3n2)cc1
    -0.1	0.4	-3.1	16.9	0.1%	-8.8	-4.2	.

Compounds were not picked by outcome; about 4.3% have a hit in one of these screens.
